Screens (PubChem BioAssay)
Lassa entry inh: qHTS for Inhibitors of binding or entry into cells for Lassa Virus; Lassa virus pseudotype entry inhibition, cell reporter; control for the full effect not named in the record; Potency, µM (series often up to 37.9 µM), inactives show at the highest dose activity change, negative = inhibition, usual class: inhibitors; actives 1.2% (n = 300,000); AID 540256, 2011; active means well fitted inhibition curve with a large enough effect; inconclusive means small, poorly fitted or top-dose-only effect, or effect the other way; inactive means flat fitted curve, though single readings scatter; tested in HEK293 cells; also: % is scaled to controls: 0 for no effect and ±100 for the full control effect; nearly all actives have a fitted effect of over 50% in size; luciferase read-out
2A StopGo: High Throughput Screening for Foot and Mouth Disease Virus Antivirals. human cells with a luciferase reporter of 2A StopGo recoding; control for the full effect not named in the record. Potency, µM (top dose mostly 57.9 µM), for the others: top-dose signal change, negative = less light. actives 1.2% (n = 410,000). AID 1159524, 2015; active = well fitted falling curve with a large enough effect; inconclusive = small, poorly fitted or top-dose-only effect; inactive = no such curve, though single readings can be large or run the other way; tested in HEK293T cells; also: % is scaled to controls: 0 for no effect and ±100 for the full control effect; nearly all actives have a fitted effect of over 45% in size; luciferase light after 4 h
Cruzain Triton: qHTS Assay for Promiscuous and Specific Inhibitors of Cruzain (with detergent). actives 0.43% (n = 200,000). Potency, µM, for the others: max response, negative = inhibition, actives largely listed as inhibitors. purified cruzain, Z-FR-AMC fluorescence, 0.01% Triton. Cruzipain (Trypanosoma cruzi), P25779. AID 1478, 2009;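 also: plate controls were neutral wells for no effect and buffer without enzyme for full effect; nearly all actives have a fitted effect of over 40% in size; top concentration of the series not given in the record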
Target sequence (P25779 123-467 limits assumed): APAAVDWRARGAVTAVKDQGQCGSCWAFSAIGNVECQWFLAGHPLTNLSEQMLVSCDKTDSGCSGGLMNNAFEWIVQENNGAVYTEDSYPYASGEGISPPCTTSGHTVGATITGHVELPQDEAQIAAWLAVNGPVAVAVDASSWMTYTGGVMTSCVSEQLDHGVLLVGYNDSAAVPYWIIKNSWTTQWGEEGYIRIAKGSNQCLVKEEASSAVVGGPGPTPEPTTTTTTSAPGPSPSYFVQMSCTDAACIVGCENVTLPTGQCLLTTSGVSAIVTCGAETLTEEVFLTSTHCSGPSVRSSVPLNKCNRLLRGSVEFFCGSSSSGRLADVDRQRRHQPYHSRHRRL
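Cruzain (1.5 nM) preincubated 15 min at RT with compound in 100 mM sodium acetate pH 5.5, 5 mM DTT, 0.01% Triton X-100. Reaction started with 2 uM Z-FR-AMC; AMC fluorescence (ex 360/em 450 nm) change over 60 s gave rate.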
SARS PLP yeast: qHTS of Yeast-based Assay for SARS-CoV PLP; S. cerevisiae expressing SARS-CoV PLpro, growth rescue; control for the full effect not named in the record; Potency, µM (top dose mostly 32.9 µM), inactives show top-dose activity, positive = growth rescue; actives 0.19% (n = 330,000); AID 485353, 2010; active means well fitted rising curve with a large enough effect; inconclusive means small, poorly fitted or top-dose-only effect; inactive means no such curve, though single readings can be large or run the other way; also: 0% is about no effect; nearly all actives have a fitted effect of over 55% in size; growth read by luminescence after 48 h
NS1 inh: qHTS Assay for Inhibitors of Influenza NS1 Protein Function; Potency, µM (doses to about 46.1 µM), without a hit: at the top dose activity, positive = more growth; actives 0.4% (n = 270,000); S. cerevisiae slowed by influenza A NS1, growth recovery by OD600; AID 2326, 2010; active means well fitted rising curve with a large enough effect; inconclusive means small, poorly fitted or top-dose-only effect; inactive means no such curve, though single readings can be large or run the other way; also: nearly all actives have a fitted effect of over 50% in size
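OD600 was taken as the measure of yeast growth restored by compound in an NS1-expressing S. cerevisiae strain. Cells had been washed out of glucose medium and diluted 1:100 into galactose -URA medium, pH 6.0.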
Marburg entry inh: qHTS for inhibitors of binding or entry into cells for Marburg Virus; Marburg virus pseudotyped entry inhibition, cell reporter; control for the full effect not named in the record; about a third of the inactives were read at about 46 µM; Potency, µM (top dose mostly 37.8 µM), without a hit: at the highest dose activity change, negative = inhibition, actives largely listed as inhibitors; actives 1.8% (n = 300,000); AID 540276, 2011; active = well fitted inhibition curve with a large enough effect; inconclusive = small, poorly fitted or top-dose-only effect, or effect the other way; inactive = flat fitted curve, though single readings scatter; tested in HEK293 cells; about a fifth of its hits are not listed in these tables; also: % is scaled to controls: 0 for no effect and ±100 for the full control effect; luciferase read-out
Cruzain noTriton: qHTS Assay for Promiscuous and Specific Inhibitors of Cruzain (without detergent) | Cruzipain (Trypanosoma cruzi), P25779 | purified cruzain, Z-FR-AMC fluorescence, no detergent | Potency, µM, without a hit: max response, negative = inhibition, hits mostly inhibitors | actives 2.3% (n = 200,000) | AID 1476, 2009;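 also: plate controls were enzyme without inhibitor for no effect and buffer without enzyme for full effect; nearly all actives have a fitted effect of over 40% in size; top concentration of the series not given in the record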
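Detergent-free condition (0.00005% Triton X-100) in acetate buffer pH 5.5 with DTT. 1.5 nM enzyme and compound were pre-mixed 15 min, then 2 uM Z-FR-AMC substrate added; reaction progress from fluorescence change between first and third reads (60 s).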
RE007 growth inh: qHTS Assay for Inhibitors of the HIV-1 protein Vpr. Potency, µM (titrated, usually from 92.2 µM), without a hit: top-dose activity change, negative = less growth. actives 0.21% (n = 360,000). S. pombe RE007 Vpr strain, BacTiter-Glo ATP luminescence, 24 h; control for the full effect not named in the record. AID 651644, 2012; active = well fitted falling curve with a large enough effect; inconclusive = small, poorly fitted or top-dose-only effect; inactive = no such curve, though single readings can be large or run the other way;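 also: % is scaled to controls: 0 for no effect and ±100 for the full control effect; nearly all actives have a fitted effect of over 50% in size; the assay follows cell death caused by Vpr and the record does not say whether a fall means rescue or toxicity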
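Fission yeast strain RE007, carrying one chromosomally integrated HIV-1 vpr copy, was seeded at OD 0.01 in PMG+AL medium with 23 nL pinned compound. After 24 h at 30 °C and 99% humidity, viability was read by BacTiter-Glo luminescence.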
The depositor's hits bear a star; [ ] = remark or other dose. Unless noted, calls follow the shape of the dose curve; as a rule, active = well fitted curve in the direction sought with a large enough effect; inconclusive = small, poorly fitted or top-dose-only effect, or another doubt; inactive = no such curve, though single readings can be large; an effect the other way counts as inactive or inconclusive. Potency is read from the fitted curve at half-maximal effect.

Screening O=C(OCC(=O)N(C1CCCCC1)C1CCCCC1)c1ccncc1 returned Lassa entry inh 2%, 2A StopGo -22%, Cruzain Triton -2.8%, SARS PLP yeast 3%, NS1 inh -8%, Marburg entry inh 18%[46.1 µM], Cruzain noTriton 4% and RE007 growth inh 8%.
Cc1ccc2cc(CN(CCCN3CCOCC3)C(c3nnnn3Cc3ccco3)C(C)C)c(=O)[nH]c2c1C (stereo not given) was read as Lassa entry inh 3%, 2A StopGo -18%, Marburg entry inh inconclusive and RE007 growth inh 4%.
`CCOc1ccc(-c2nc3c(C#N)c[nH]n3c2NC2CCCC2)cc1` gave Lassa entry inh -11%[46.1 µM], 2A StopGo -10%, Cruzain Triton -1.2%, Marburg entry inh 0%[46.1 µM] and Cruzain noTriton 9%.
CC(=O)Nc1ccc(NC(=O)c2cccc(-c3cc4ccccc4oc3=O)c2)cc1 was read as Lassa entry inh 22%, 2A StopGo 16%, SARS PLP yeast 2%, Marburg entry inh 18% and RE007 growth inh 0%.
For O=C(O)c1ccc(Cl)nc1 the results were Lassa entry inh 0%, 2A StopGo -15%, Cruzain Triton -1.2%, SARS PLP yeast -14%, NS1 inh 1%, Marburg entry inh 30%, Cruzain noTriton 2% and RE007 growth inh 2%.
`COc1cccc(OCc2cc(/C=N/NC(=O)c3nc(Cl)c(Cl)c(N)c3Cl)ccc2OC)c1` gave Lassa entry inh -21%, 2A StopGo 0%, Cruzain Triton 4.2%, SARS PLP yeast -6%, NS1 inh 12%, Marburg entry inh inconclusive, Cruzain noTriton inconclusive and RE007 growth inh 5%.
Screening O=C(Nc1c(-c2ccccc2)nc2ccccn12)c1ccc(Br)cc1 returned Lassa entry inh -6%[46.1 µM], 2A StopGo 0%, Cruzain Triton -6.3%, Marburg entry inh inconclusive and Cruzain noTriton 19%.
For COc1ccc(-c2nc(CS(=O)CC(=O)NCc3ccccc3Cl)c(C)o2)cc1OC (stereo not given) the results were Lassa entry inh 1%[46.1 µM], 2A StopGo 9%, Cruzain Triton -6.6%, Marburg entry inh 7%[46.1 µM] and Cruzain noTriton 0%.
Cc1c(CN2CCCCC2)c(O)n(CCCO)c(=O)c1C#N was read as Lassa entry inh inconclusive, 2A StopGo 13%, Cruzain Triton -4.1%, SARS PLP yeast 1%, NS1 inh 1%, Marburg entry inh 12%, Cruzain noTriton -12% and RE007 growth inh -10%.
`CCCc1cc(=O)oc2cc(OCC(=O)NCCCN3CCCC3=O)ccc12` gave 2A StopGo 0%, SARS PLP yeast 1%, NS1 inh -7% and RE007 growth inh 4%.
`NC(=O)CC(NC(=O)Cc1ccc(Br)cc1)c1ccc(N2CCN(c3ccc(F)cc3)CC2)c([N+](=O)[O-])c1` (stereo not given) gave 2A StopGo -29%, SARS PLP yeast -5%, NS1 inh 5% and RE007 growth inh 1%.
For COc1cc(CNC(C)(C)CO)ccc1OCC(=O)NC(C)(C)C the results were Lassa entry inh 4%, 2A StopGo -12%, Cruzain Triton -0.7%, SARS PLP yeast 17%, NS1 inh -2%, Marburg entry inh inconclusive, Cruzain noTriton 2% and RE007 growth inh 9%.
COc1ccc(-c2cc(C(F)(F)F)nc(NCc3ccc(F)cc3)n2)cc1 was read as Lassa entry inh -15%[46.1 µM], 2A StopGo -23%, Cruzain Triton -8.0%, Marburg entry inh -13%[46.1 µM] and Cruzain noTriton inconclusive.
CCCc1cc(=O)n2[nH]c(C)c(-c3ccc(Cl)cc3)c2n1 was read as 2A StopGo -16%, SARS PLP yeast -5%, NS1 inh 29% and RE007 growth inh 9%.
`N#C/C(=C\c1ccc(N2CCCCC2)c([N+](=O)[O-])c1)c1nn(-c2ccccc2)c(N)c1C#N` gave Lassa entry inh -10%, 2A StopGo -10%, Cruzain Triton -3.8%, SARS PLP yeast -19%, NS1 inh 10%, Marburg entry inh inconclusive and Cruzain noTriton 20µM*.
For CCn1c(O)c(C=Nc2ccc(S(N)(=O)=O)cc2)c(=O)n(CC)c1=S the results were Lassa entry inh -22%, 2A StopGo -22%, Cruzain Triton -2.4%, SARS PLP yeast 8%, NS1 inh 14%, Marburg entry inh 17%, Cruzain noTriton -23% and RE007 growth inh -1%.
CCCSc1ncc(Cl)c(C(=O)N(Cc2ccccc2)c2ccc(OC)cc2)n1 was read as Lassa entry inh -14%[46.1 µM], 2A StopGo inconclusive, Cruzain Triton -6.2%, Marburg entry inh inconclusive and Cruzain noTriton -25%.
Screening COc1ccc(-c2cnnn2-c2ccc(NC(=O)c3ccco3)cc2)cc1OC returned Lassa entry inh -14%, 2A StopGo 11%, Cruzain Triton -1.5%, SARS PLP yeast 5%, NS1 inh -40%, Marburg entry inh 0%, Cruzain noTriton -1% and RE007 growth inh -7%.
`Cc1ccc(O)c(NC(=O)CCS(=O)(=O)c2nc(-c3ccc4c(c3)OCO4)cc(C(F)(F)F)n2)c1` gave Lassa entry inh 14%[46.1 µM], 2A StopGo inconclusive, Cruzain Triton -5.2%, Marburg entry inh 10%[46.1 µM] and Cruzain noTriton -4%.
CC(=O)c1cccc(OCC(=O)OCC(=O)Nc2cc(S(=O)(=O)N3CCCCC3)ccc2C)c1 was read as Lassa entry inh -2%, 2A StopGo -3%, SARS PLP yeast -4%, Marburg entry inh inconclusive and RE007 growth inh 7%.
Screening CCCC1=C(C(=O)OCC)C(c2ccc(OC)c(CSc3ccccn3)c2)C(C#N)=C(N)O1 (stereo not given) returned Lassa entry inh -9%, 2A StopGo -19%, Cruzain Triton -8.4%, SARS PLP yeast 24%, NS1 inh -4%, Marburg entry inh 12%, Cruzain noTriton 13% and RE007 growth inh inconclusive.
`CNc1ccccc1C(C)(C)c1cn(-c2ccc([N+](=O)[O-])cc2)nn1` gave Lassa entry inh inconclusive, 2A StopGo 4%, SARS PLP yeast -4%, NS1 inh 1%, Marburg entry inh -11%[46.1 µM] and RE007 growth inh 2%.
`O=C(NCC1CCN(Cc2ccccc2Cl)CC1)Nc1cccc(Cl)c1` gave Lassa entry inh -3%[46.1 µM], 2A StopGo -25%, SARS PLP yeast -2%, NS1 inh 4%, Marburg entry inh inconclusive and RE007 growth inh -10%.
`CC(SCc1ccccc1)C(=O)N/N=C/c1ccc(OCC(=O)NCc2ccco2)cc1` (stereo not given) gave Lassa entry inh inconclusive, 2A StopGo 13µM*, Cruzain Triton -6.2%, SARS PLP yeast 2%, NS1 inh -9%, Marburg entry inh inconclusive, Cruzain noTriton 9% and RE007 growth inh 5%.
Screening COCCNC(=O)/C(C#N)=C/c1ccc(-c2ccc(S(=O)(=O)N3CCOCC3)cc2)o1 returned Lassa entry inh -14%, 2A StopGo 20%, Cruzain Triton -12%, SARS PLP yeast 8%, NS1 inh 21%, Marburg entry inh -37%, Cruzain noTriton 67% and RE007 growth inh -17%.
For COc1cc(-c2nnn(CC(=O)N3CCOCC3)n2)cc(OC)c1OC the results were Lassa entry inh -4%, 2A StopGo -12%, Cruzain Triton 2.0%, SARS PLP yeast 0%, NS1 inh 2%, Marburg entry inh -4%, Cruzain noTriton 8% and RE007 growth inh -1%.
`CCCCOC(=O)CSc1nc2ccccc2o1` gave Lassa entry inh -10%, 2A StopGo -16%, SARS PLP yeast 1%, NS1 inh 1%, Marburg entry inh 9%[14.2 µM] and RE007 growth inh -1%.
`COc1ccc(CCNC(=O)Cc2c(C)c3cc4c(C(C)(C)C)coc4c(C)c3oc2=O)cc1OC` gave Lassa entry inh -8%[46.1 µM], 2A StopGo inconclusive, Cruzain Triton -1.2%, Marburg entry inh -14%[46.1 µM] and Cruzain noTriton 3%.
Screening Cc1cc(C)cc(-n2ncc3c2CCCC3NC(=O)CCN2CCCC2=O)c1 (stereo not given) returned Lassa entry inh 1%, 2A StopGo 16%, SARS PLP yeast 27%, NS1 inh 6%, Marburg entry inh -4% and RE007 growth inh -8%.
O=C(CN(Cc1ccccc1Cl)C(=O)c1ccc(CN2CCOCC2)o1)NCC1CCCO1 (stereo not given) was read as Lassa entry inh 23%, 2A StopGo -12%, Cruzain Triton 0.6%, SARS PLP yeast 0%, NS1 inh 1%, Marburg entry inh 6%, Cruzain noTriton -3% and RE007 growth inh 11%.

Structures listed so far containing a tert-butyl group, in the order listed:
For COc1cc(CNC(C)(C)CO)ccc1OCC(=O)NC(C)(C)C the results were Lassa entry inh 4%, 2A StopGo -12%, Cruzain Triton -0.7%, SARS PLP yeast 17%, NS1 inh -2%, Marburg entry inh inconclusive, Cruzain noTriton 2% and RE007 growth inh 9%.
`COc1ccc(CCNC(=O)Cc2c(C)c3cc4c(C(C)(C)C)coc4c(C)c3oc2=O)cc1OC` gave Lassa entry inh -8%[46.1 µM], 2A StopGo inconclusive, Cruzain Triton -1.2%, Marburg entry inh -14%[46.1 µM] and Cruzain noTriton 3%.

New compounds follow:
CC(Oc1cccc(Cl)c1)C(=O)Nc1ccccc1N1CCCCC1 (stereo not given) was read as Lassa entry inh -1%, 2A StopGo inconclusive, SARS PLP yeast -2%, Marburg entry inh inconclusive and RE007 growth inh 1%.
Screening O=C(CC1Oc2ccccc2NC1=O)NCc1ccc(F)cc1 (stereo not given) returned Lassa entry inh 12%[46.1 µM], 2A StopGo -20%, Cruzain Triton -1.6%, Marburg entry inh 3%[46.1 µM] and Cruzain noTriton -4%.
Screening COc1ccc(CNC(=O)C(C)n2c(=O)cc(C)c3c(C)nn(-c4ccccc4)c32)cc1 (stereo not given) returned Lassa entry inh 7%[46.1 µM], 2A StopGo 1%, Cruzain Triton -1.5% and Cruzain noTriton 4%.
CCOC(=O)C/C(C)=N/NC(=O)COc1ccccc1C was read as Lassa entry inh 13%, 2A StopGo -17%, Cruzain Triton -0.5%, SARS PLP yeast 7%, NS1 inh 5%, Marburg entry inh 9%, Cruzain noTriton 1% and RE007 growth inh -5%.
